2A StopGo – lowers the luciferase signal of an FMDV 2A StopGo reporter | human cells with a luciferase reporter of 2A StopGo recoding; control for the full effect not named in the record | Potency, µM (doses to about 57.9 µM), for the others: at the highest dose signal change, negative = less light | 1.2% of 410,000 active; active = well fitted falling curve with a large enough effect; inconclusive = small, poorly fitted or top-dose-only effect; inactive = no such curve, though single readings can be large or run the other way; tested in HEK293T cells; also: % is scaled to controls: 0 for no effect and ±100 for the full control effect; nearly all actives have a fitted effect of over 45% in size; luciferase light after 4 h
NS1 inh – influenza NS1 inhibition; S. cerevisiae slowed by influenza A NS1, growth recovery by OD600; Potency, µM (series often up to 46.1 µM), inactives show at the top dose activity, positive = more growth; 0.4% of 270,000 active; AID 2326; also: actives are rising curves; nearly all actives have a fitted effect of over 50% in size
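In this qHTS, NS1 from influenza A is expressed in budding yeast, where it slows growth. Cells are switched from glucose to 2% galactose medium (pH 6.0, -URA), treated with compound, and growth recovery is read at OD600.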
LASV entry inh – blocks Lassa virus binding to or entry into cells; Lassa virus pseudotype entry inhibition, cell reporter; control for the full effect not named in the record; Potency, µM (doses to about 37.9 µM), inactives show top-dose activity change, negative = inhibition, actives largely listed as inhibitors; 1.2% of 300,000 active; active means well fitted inhibition curve with a large enough effect; inconclusive means small, poorly fitted or top-dose-only effect, or effect the other way; inactive means flat fitted curve, though single readings scatter; tested in HEK293 cells; also: % is scaled to controls: 0 for no effect and ±100 for the full control effect; nearly all actives have a fitted effect of over 50% in size; luciferase read-out
Marburg entry inh – blocks Marburg virus binding to or entry into cells; AID 540276; Potency, µM (titrated, usually from 37.8 µM), for the others: at the highest dose activity change, negative = inhibition, hits mostly inhibitors; Marburg virus pseudotyped entry inhibition, cell reporter; control for the full effect not named in the record; about a third of the inactives were read at about 46 µM; 1.8% of 300,000 active; active = well fitted inhibition curve with a large enough effect; inconclusive = small, poorly fitted or top-dose-only effect, or effect the other way; inactive = flat fitted curve, though single readings scatter; tested in HEK293 cells; about a fifth of its hits are not listed in these tables; also: % is scaled to controls: 0 for no effect and ±100 for the full control effect; luciferase read-out
Cruzain inh noDet – inhibitors of Trypanosoma cruzi cruzain without detergent | P25779 | purified cruzain, Z-FR-AMC fluorescence, no detergent | 2.3% of 200,000 active | Potency, µM, without a hit: max response, negative = inhibition, actives largely listed as inhibitors; active = well fitted curve in the direction sought with a large enough effect; inconclusive = small, poorly fitted or top-dose-only effect, or another doubt; inactive = no such curve, though single readings can be large; an effect the other way counts as inactive or inconclusive;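 also: plate controls were enzyme without inhibitor for no effect and buffer without enzyme for full effect; nearly all actives have a fitted effect of over 40% in size; top concentration of the series not given in the record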
Target sequence (P25779 123-467 limits assumed): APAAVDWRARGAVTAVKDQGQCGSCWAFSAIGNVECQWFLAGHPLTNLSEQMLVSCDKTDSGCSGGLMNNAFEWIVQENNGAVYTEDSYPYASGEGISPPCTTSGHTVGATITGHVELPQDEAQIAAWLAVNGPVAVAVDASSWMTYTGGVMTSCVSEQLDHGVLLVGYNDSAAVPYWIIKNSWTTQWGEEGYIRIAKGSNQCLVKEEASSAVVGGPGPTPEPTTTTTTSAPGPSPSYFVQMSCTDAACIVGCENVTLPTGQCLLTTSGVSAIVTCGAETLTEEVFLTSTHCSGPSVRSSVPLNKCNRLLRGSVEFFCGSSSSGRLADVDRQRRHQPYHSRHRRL
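Purified cruzain at 1.5 nM, pre-incubated 15 min with compound at room temperature in 100 mM sodium acetate pH 5.5, 5 mM DTT, 0.00005% Triton X-100. Reaction started with 2 uM Z-FR-AMC; AMC fluorescence increase over 60 s gives rate.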
Cruzain inh Det – inhibitors of Trypanosoma cruzi cruzain with detergent | Potency, µM, without a hit: max response, negative = inhibition, actives largely listed as inhibitors | AID 1478 | 0.43% of 200,000 active | P25779 | purified cruzain, Z-FR-AMC fluorescence, 0.01% Triton; active = well fitted curve in the direction sought with a large enough effect; inconclusive = small, poorly fitted or top-dose-only effect, or another doubt; inactive = no such curve, though single readings can be large; an effect the other way counts as inactive or inconclusive;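 also: plate controls were neutral wells for no effect and buffer without enzyme for full effect; nearly all actives have a fitted effect of over 40% in size; top concentration of the series not given in the record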
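Detergent-containing run (0.01% Triton X-100) in acetate buffer pH 5.5 with 5 mM DTT: enzyme at 1.5 nM final, 15 min compound preincubation at room temperature, then 2 uM Z-FR-AMC substrate. Activity taken as 60 s fluorescence increase at 360/450 nm.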
RE007 growth inh – less growth of the S. pombe RE007 Vpr strain; 0.21% of 360,000 active; Potency, µM (series often up to 92.2 µM), for inactives: at the top dose activity change, negative = less growth; S. pombe RE007 Vpr strain, BacTiter-Glo ATP luminescence, 24 h; control for the full effect not named in the record; active = well fitted falling curve with a large enough effect; inconclusive = small, poorly fitted or top-dose-only effect; inactive = no such curve, though single readings can be large or run the other way;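 also: % is scaled to controls: 0 for no effect and ±100 for the full control effect; nearly all actives have a fitted effect of over 50% in size; the assay follows cell death caused by Vpr and the record does not say whether a fall means rescue or toxicity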
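Fission yeast strain RE007, carrying one chromosomally integrated HIV-1 vpr copy, was seeded at OD 0.01 in PMG+AL medium with 23 nL pinned compound. After 24 h at 30 °C and 99% humidity, viability was read by BacTiter-Glo luminescence.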
SARS PLP yeast – SARS-CoV PLP inhibition in yeast; Potency, µM (doses to about 32.9 µM), without a hit: at the top dose activity, positive = growth rescue; S. cerevisiae expressing SARS-CoV PLpro, growth rescue; control for the full effect not named in the record; AID 485353; 0.19% of 330,000 active; also: 0% is about no effect; nearly all actives have a fitted effect of over 55% in size; growth read by luminescence after 48 h
Starred values were filed as active, the others as inactive; ? = inconclusive; nt = not tested or not shown; & = joins results of further samples; [ ] = another dose, or the depositor's remark. Unless noted, calls follow the shape of the dose curve; as a rule, active means well fitted rising curve with a large enough effect; inconclusive means small, poorly fitted or top-dose-only effect; inactive means no such curve, though single readings can be large or run the other way. Potency is read from the fitted curve at half-maximal effect.

SMILES	2A StopGo	NS1 inh	LASV entry inh	Marburg entry inh	Cruzain inh noDet	Cruzain inh Det	RE007 growth inh	SARS PLP yeast
Cc1ccc(OCCn2c3ccccc3n3nc(C)c(=O)nc23)cc1	-24%	2%	-13%[46.1 µM]	0%[46.1 µM]	nt	nt	0%	0%
O=C(O)[C@@H]1CSC2(CCSC2)N1 (stereo partly drawn)	nt	-11%	nt	-1%	7%	3.7%	nt	-8%
CSc1ccc(/C=C/C(=O)c2ccc(NC(C)=O)cc2)cc1	0%	-12%	-4%	-1%	?	-14%	-14%	1%
CCOC(=O)N1CCN(C(=O)c2ccc(NC(C)=O)cc2)CC1	9%	0%	-8%	13%	-5%	0.2%	4%	0%
O=C(CN1CCN(C(=S)NC2CCCC2)CC1)Nc1ccc(Oc2ccccc2)cc1	0%	-1%	?	?	?	-2.9%	-4%	?
CCc1ccc(C2CC(=O)N(c3cccc(F)c3)C3=C2C(=O)OC3)cc1 (stereo not drawn)	-18%	nt	9%[46.1 µM]	2%[46.1 µM]	nt	nt	12%	-3%
Cc1cc(N/N=C/c2c[nH]c3ccccc23)c2ccccc2n1	3%	-10%	9%	?	nt	nt	-2%	0%
CN1c2ccc(Cl)cc2-c2nc(SCC(=O)NCc3ccc(F)cc3)ncc2S1(=O)=O	-20%	nt	?	nt	26%	4.4%	nt	nt
Cc1ccc(OCCn2cc(C=O)c3ccccc32)cc1	?	-1%	-25%	?	nt	nt	9%	2%
Fc1ccc(CNCc2ccccc2C(F)(F)F)cc1	-28%	13%	0%	?	5%	0.4%	-5%	14%
COC(=O)c1c(NC(=O)COC(=O)C2CCC2)sc(C)c1C	-1%	nt	-5%	-3%[46.1 µM]	nt	nt	-1%	-3%
CCn1c(=O)n(CC)c2cc(N3CCCC3)c(NC(=O)c3c(F)cccc3F)cc21	-28%	1%	nt	nt	nt	nt	-6%	0%
CCC(=O)Nc1ccccc1C(=O)N1CCCC1	4%	4%	7%	?	10%	3.5%	4%	15%
CC(C)CCOC(=O)C(C)Sc1n[nH]c(=O)[nH]c1=O (stereo not drawn)	5%	-2%	nt	nt	nt	nt	-11%	0%
NNC(=O)C1CCCn2c1nc1sc3c(c1c2=O)CCCC3 (stereo not drawn)	20%	24%	1%	6%[46.1 µM]	10%	3.5%	12%	-3%
Cc1ccc(SCC(=O)c2c(C)[nH]c3ccccc23)cc1	-4%	-4%	-26%	22%	11%	-14%	-11%	20%
CC(c1ccco1)N(C(=O)c1ccccc1F)c1ccccn1 (stereo not drawn)	16%	1%	-11%[46.1 µM]	-1%[46.1 µM]	nt	nt	-9%	-1%
COc1cc(C)ccc1OCc1cc(C(=O)N2CCN(C)C[C@@H]2c2ccccc2)no1	4%	-6%	nt	nt	nt	nt	-11%	2%
COc1ccccc1NC(=O)c1c(NC(=O)c2ccco2)sc2c1CCC2	nt	?	-1%	-22%	7.9µM*	-5.0%	-3%	-3%
CCN(CCCNC(=O)CCNC(=O)Cn1cnc2ccccc2c1=O)c1cccc(C)c1	-22%	2%	-5%	3%&-5%	5%	5.8%	-11%	-1%
O=C(COc1ccc([N+](=O)[O-])cc1)NCC(c1cccs1)N1CCOCC1 (stereo not drawn)	-16%	nt	14%	2%[46.1 µM]	nt	nt	-8%	-5%
COc1ccccc1Nc1ncc(-c2cccs2)s1	18%	9%	12%	-5%	?	-19%	-16%	-8%
COc1ccc(-c2ccc(=O)n(CC(=O)Nc3ccccc3C(F)(F)F)n2)cc1	-2%	nt	-10%[46.1 µM]	nt	-6%	-1.6%	nt	nt
Cc1nn(-c2ccc(F)cc2)c2sc(C(=O)OCC(=O)N3CCC(C)CC3)cc12	-10%	-23%	-2%	?	?	-4.9%	2%	8%
CCc1ccc(CNC(=O)c2ccc3c(c2)nc2n3CCOC2)cc1	19%	nt	2%[46.1 µM]	nt	63%	0.2%	nt	nt
O=S(=O)(NC(=S)c1ccccc1)c1ccc(Cl)cc1	0%	3%	0%[46.1 µM]	7%[46.1 µM]	nt	nt	-6%	0%
CC(=O)N1c2ccccc2NC2=C(C(=O)CCC2)C1c1cccnc1 (stereo not drawn)	14%	-10%	0%	-9%[46.1 µM]	2%	-3.6%	17%	3%
CC(=O)c1cccc(NS(=O)(=O)c2ccc(N/C=C\C(=O)c3ccc(C)cc3)cc2)c1	?	-2%	-3%	?	-4%	3.7%	5%	-7%
C/C=C/c1ccc(OC)c(OC(C)=O)c1	-3%	2%	15%	-5%[46.1 µM]	3%	0.4%	2%	1%
COc1ccccc1NS(=O)(=O)c1ccc2c(c1)OCCO2	24%	-2%	2%[46.1 µM]	-6%[46.1 µM]	nt	nt	2%	6%
CC(C)CC(NC(=O)C(NC(=O)OC(C)(C)C)C(C)C)C(=O)NC(CCC(=O)OCc1ccccc1)C(N)=O (stereo not drawn)	-14%	11%	?	-17%&-17%	?	-25%	7%	0%
Cc1cc(SCC(=O)OCC(=O)N(CCC#N)c2ccccc2)nc2ccccc12	-9%	nt	-7%	5%	nt	nt	-11%	nt
Cc1ccc(NC(=O)N2CCC(c3nc4c(nnn4Cc4c(F)cccc4Cl)c(=O)[nH]3)CC2)cc1	nt	11%	-8%	?	?	-14%	1%	5%
N#Cc1ccccc1CSC1=NCCS1	15%	2%	-1%	5%[46.1 µM]	nt	nt	-9%	0%
CC(OC(=O)CNC(=O)C12CC3CC(CC(C3)C1)C2)C(=O)Nc1ccc(N2CCOCC2)cc1 (stereo not drawn)	16%	-12%	4%	-3%&-3%	?	-3.2%	-19%	-1%
Cc1ccc(N(CC(=O)NCCc2ccc(Cl)cc2)S(=O)(=O)c2c(C)noc2C)cc1	-8%&-20%	-6%	-6%&18%[46.1 µM]	?	?	-3.5%	6%	4%
Cc1cc(C)c2c(CC(=O)Nc3nnc(CC(C)C)s3)coc2c1	-18%	nt	19%[46.1 µM]	14%[46.1 µM]	-5%	-1.8%	nt	nt
Cc1ccc(C2=CSC3=NS(=O)(=O)CCN23)cc1	-9%	nt	2%	-5%[46.1 µM]	nt	nt	8%	0%
CCOc1ccc(NC(=O)Cn2nnc(C(=O)OC)c2C(=O)OC)cc1	-4%	nt	0%[46.1 µM]	-2%[46.1 µM]	-8%	-0.4%	nt	nt
CCOc1ccccc1NC(=O)C(CC)n1c(C(=O)OC)cc2occc21 (stereo not drawn)	-15%	nt	nt	?	-5%	-7.4%	nt	nt
CCc1ccccc1NC(=O)Cn1c(=O)n(-c2ccc(CC(=O)NCC3CCCO3)cc2)c(=O)c2ccccc21 (stereo not drawn)	-12%&14%	nt	-18%[46.1 µM]	?	-3%	-1.5%	16%	1%
CC(C)c1ccc(NC(=O)c2ccc(Br)o2)cc1	-18%	3%	?	?	-15%	-5.3%	-29%	-26%
CCn1c(SCC(=O)NCC2CCCO2)nc2c([nH]c3ccccc32)c1=O (stereo not drawn)	30%[activator]	-2%	nt	nt	nt	nt	5%	-5%
CSCCC(NS(=O)(=O)c1ccc2c(c1)oc(=O)n2C)C(=O)NC1CCN(Cc2ccccc2)CC1 (stereo not drawn)	-8%	nt	-16%	-19%[46.1 µM]	nt	nt	-14%	1%
N#Cc1cnc2c(-c3ccccc3)c(-c3ccccc3)nn2c1N	-1%	3%	6%	11%	nt	nt	2%	0%
CCOC(=O)c1ccccc1NC1OC(=O)c2ccccc21 (stereo not drawn)	15%	-2%	7%	-21%[46.1 µM]	7%	0.7%	-1%	-1%
O=C(N/C(=C/c1ccc(Cl)cc1)c1nc2ccccc2[nH]1)c1ccco1	29%	1%	9%	?	6%	-0.6%	1%	3%
COc1ccc(-c2occ(C(=O)O)c2C(=O)O)cc1	-15%	12%	-2%	2%	-8%	-8.4%	0%[3.69 µM]	7%
O=C(CCC(=O)c1ccccc1)Nc1ccc(F)c(Cl)c1	14%	nt	14%[46.1 µM]	nt	-7%	-1.5%	nt	nt
COc1ccc(OC)c(CNC(=O)CCC(=O)N2Cc3cccc(OC)c3Oc3ncccc32)c1	1%	13%	nt	nt	nt	nt	-3%	19%
COc1ccc(NC(=O)CSc2nnc3ccc(-c4cccnc4)nn23)cc1	-1%	nt	10%	-6%	nt	nt	4%	?
CC(C)CC(=O)Nc1ccc(OCC(=O)O)cc1	-16%	-3%	5%	?	-6%	3.4%	16%	-3%
N#CC1C(=O)NC(=O)C(C#N)C12CCCC(C(F)(F)F)C2 (stereo not drawn)	-19%	nt	-1%[46.1 µM]	11%	nt	nt	13%	nt
C=CCNC(=S)N1CCN(CCN=CC2=C(O)CC(c3cccs3)CC2=O)CC1 (stereo not drawn)	-7%	-3%	10%	13%	-12%	5.0%	10%	-1%
CCN(c1ccccc1)S(=O)(=O)c1cc(NC(=O)CN2CCN(C)CC2)ccc1Cl	-25%	nt	-30%[46.1 µM]	?	nt	nt	-14%	nt
CC(C)(C)[C@@H]1C=C(C(=O)N2CCN(Cc3ccccc3)CC2)O[C@H](OCc2ccc(CO)cc2)C1	-16%	-9%	nt	nt	nt	nt	1%	-1%
O=C(N/N=C/c1cn(Cc2ccccc2)c2ccccc12)c1cccnc1	-23%	25%	?	4.5µM*	?	-8.4%	-7%	-4%
CCOC(=O)C1CCCN(C(=O)c2ccc(CNc3c(N4CCC(C)CC4)c(=O)c3=O)cc2)C1 (stereo not drawn)	-16%	-11%	nt	0%	6%	2.7%	-8%	10%
CC1(C)Cc2c(sc3nc(C4CCCCC4)n(N)c(=O)c23)CO1	-20%	4%	15%	1%[46.1 µM]	nt	nt	19%	1%
CCCc1nc(SCC(=O)NNC(=O)C2CCCCC2)c2ccccc2n1	nt	-8%	-25%	-5%	20%	5.1%	5%	7%
CCOC(=O)c1[nH]c2ccc(OC)cc2c1NC(=O)OC	-1%	-14%	-8%	-10%	-6%	-3.7%	0%	-2%
COc1ccc(NC(=O)Cn2c(=O)n(CCCCCC(=O)NCc3ccc4c(c3)OCO4)c(=O)c3sccc32)cc1Cl	-17%	nt	22%[46.1 µM]	-7%[46.1 µM]	-9%	-4.3%	nt	nt

High-throughput results deposited in PubChem by National Center for Advancing Translational Sciences (NCATS).
